# H5N1 antiviral: MDCK cell protection from H5N1 avian flu | cytopathic effect, luminescence, 72 h; stronger effect = higher value; no value below 0 was filed and about half of the inactive calls have no number; reference of the scale not given here | inhibition, % at 50 µM | 96,000 tested, 0.07% active | AID 740; in the data active means inhibition above about 25%
# Starred values were filed as active, the others as inactive; i = inactive. Not all compounds are listed; rates above refer to the full screens.
Compound | H5N1 antiviral
CC(C)(C)c1cc(=O)n2c(nc3ccccc32)[nH]1 | 1.6
O=C(Nc1ccc2c(c1)OCCO2)C1c2ccccc2C(=O)N2CCc3ccccc3C12 (stereo unspecified) | 1.9
CS(=O)(=O)N1CCN(C(=O)c2ccccc2)C1 | 0.3
CN(CCCn1c(=S)[nH]c2ncccc2c1=O)Cc1ccccc1 | i
Cc1nc(=S)c2ccccc2[nH]1 | 0.8
Cc1cc2ncn(CCOc3ccccc3)c2cc1C | i
CCOC(=O)c1c(NC(=O)c2cccs2)sc(CC)c1-c1cccs1 | i
Cc1cc(NC(=O)c2ccccc2Cl)no1 | i
CC(=O)N(CCC(Cc1ccccc1)c1ccc2c(c1)OCO2)Cc1ccc(Cl)cc1 (stereo unspecified) | i
COC(=O)c1c(NC(=O)c2c(-c3ccccc3Cl)noc2C)sc2c1CCC2 | 0.1
COc1ccc2nnc(-c3ccccc3)n2n1 | 1.0
Cc1ccc(NC(=S)N2CCN(C(=O)C3CCCO3)CC2)c(C)c1 (stereo unspecified) | i
O=C1CCC([N+](=O)[O-])C(c2ccccc2Cl)N1 (stereo unspecified) | i
O=C(COC(=O)Cc1cccs1)Nc1ccccc1 | 0.5
Cc1cc(NC(=O)CCC(=O)N(CC2CCCO2)C(C(=O)NC2CCCC2)c2cccnc2)no1 (stereo unspecified) | 0.1
CCOC(=O)N1CCN(c2c(N3CCN(c4cc(C)ccc4C)CC3)c(=O)c2=O)CC1 | i
O=C(Nc1nccs1)C1CCCN(S(=O)(=O)c2cccc3cccnc23)C1 (stereo unspecified) | 9.1
C=C(C)CN(CC)CCC(=O)Nc1ccc(OC)cc1OC | i
CCN(C1CCCCC1)S(=O)(=O)c1ccc(S(=O)(=O)NCc2ccncc2)cc1 | i
COc1ccc(C2C(C(=O)Nc3cc(C)on3)c3ccccc3C(=O)N2C)cc1 (stereo unspecified) | i

# Additional records
Compound | H5N1 antiviral
COc1cc(-c2nnc(-c3ccc(N4CCOCC4)cc3)o2)cc(OC)c1OC | i
OCCN1CCN(CC#CCn2c3ccccc3c3ccccc32)CC1 | i
CCOC(=O)c1sc2cccc(F)c2c1N | i
Cn1c(SC2=CS(=O)(=O)c3ccccc32)nc2ccccc21 | i
CC(C)(C)N1C(=O)c2ccccc2NC(=O)N1Cc1ccccc1 | 0.1
O=C(CCN1CCOCC1)Nc1c(-c2ccccc2)c2cc(Br)ccc2[nH]c1=O | i
O=C(c1ccc(COc2ccccc2Cl)o1)N1CCN(c2ccccc2)CC1 | i
CCc1nnc(NC(=O)CSc2nc(-c3ccc(OC)cc3)ns2)s1 | i
CS(=O)(=O)n1nc(OC(=O)c2cccc3ccccc23)cc1N | 0.6
C/C(=N/NC(=O)c1cc2ccccc2cc1O)C1C(=O)c2ccccc2C1=O | i
O=C(CCSc1ccccc1)Nc1nc2c(s1)CCCC2 | i
O=C(CCCC(=O)OCC(=O)c1ccc(F)cc1)Nc1cc(C(F)(F)F)ccc1Cl | 0.5
c1ccc2cc3[nH]c(CN4CCCCC4)nc3cc2c1 | i
COc1ccc(CCNc2oc(-c3ccccc3OC)nc2C#N)cc1 | 1.6
Cc1oc2c(c1C(=O)NCCCC(=O)O)CCCC2 | i
CCOC(=O)c1cc2cc(OC)ccc2[nH]1 | 1.0
Cc1ccc(-c2n[nH]c(=S)n2/N=C/C=C\c2ccccc2[N+](=O)[O-])cc1 | 4.9
C=CCOC(=O)C1=C(C)NC(SCC(=O)Nc2nccs2)=C(C#N)C1c1ccc(Cl)cc1 (stereo unspecified) | 2.3
COc1cccc(Cn2nnc(C(=O)NCc3ccc(F)cc3)c2N)c1 | i
Cc1nn(C2CCS(=O)(=O)C2)c(Cl)c1/C=C/C(=O)OCC(=O)Nc1ccccc1OC(F)F (stereo unspecified) | i

# The list continues:
Compound | H5N1 antiviral
Cc1ccc(C)c(NS(=O)(=O)c2ccc(OCC(=O)N3CCOCC3)cc2)c1 | i
Cc1ccc(C(=O)NCc2ccco2)cc1S(=O)(=O)Nc1cccc(C)c1C | i
CC(C)CN(CC(C)C)C(=O)CC(=O)NC(=O)c1ccc(Cl)cc1 | i
Cc1ccc(-n2nnnc2C(Cl)(Cl)c2nnnn2-c2ccc(C)cc2)cc1 | i
Cc1cc(-c2csc(N)n2)c(C)n1CCc1ccccc1 | 8.2
CCCC(=O)Nc1ccc2c(c1)nc1n2CCSC1 | i
COc1ccc(C2CC(c3ccc(Cl)cc3Cl)n3nc(N)nc3N2)cc1 (stereo unspecified) | i
CCOP(=O)(OCC)C(NC(C)=O)C(Cl)(Cl)Cl (stereo unspecified) | i
CCOC(=O)C1=C(c2ccccc2)O/C(=C(/C(=O)OC)C(F)(F)F)S1 | 0.6
CC1CCN(C(=O)C2CCCN(S(C)(=O)=O)C2)CC1 (stereo unspecified) | 0.2
CC1(C)CC(n2[nH]c(=O)c3c2NC(=O)CSC3c2ccc(F)cc2)CCO1 (stereo unspecified) | 0.1
CCOC(=O)C(CCSC)NC(=O)CN (stereo unspecified) | i
CC1CC(C)CN(CC(C)(C)NS(=O)(=O)c2ccc(Cl)cc2)C1 (stereo unspecified) | 0.4
O=C(N/C=C/c1ccc(Cl)cc1)NCc1ccc(Cl)cc1 | 0.8
Cc1cc(C(=O)Nc2sc3c(c2C#N)CCCCC3)cs1 | 0.1
Cn1c(C(=O)OC(C(=O)NCc2ccco2)c2ccncc2)cc2sccc21 (stereo unspecified) | 0.5
Cc1cc(C)cc(Oc2cc(NC(=O)c3cn(C)nc3C)cc([N+](=O)[O-])c2)c1 | i
COc1ccc(C2N(c3cccc(Cl)c3)C(=O)C3CCCN32)cc1 (stereo unspecified) | i
O=C(NCc1cccnc1)/C(=C/c1ccc(-c2cccc(C(F)(F)F)c2)o1)NC(=O)c1ccccc1 | i
CCOc1nnc(C)c2c(C)n(-c3cccc(Cl)c3)nc12 | 1.4

# Some of the entries so far, with each value named.
COc1ccc(CCNc2oc(-c3ccccc3OC)nc2C#N)cc1
  H5N1 antiviral = 1.6

O=C1CCC([N+](=O)[O-])C(c2ccccc2Cl)N1 (stereo unspecified)
  H5N1 antiviral = i

CCOC(=O)C(CCSC)NC(=O)CN (stereo unspecified)
  H5N1 antiviral = i

Cc1cc(C)cc(Oc2cc(NC(=O)c3cn(C)nc3C)cc([N+](=O)[O-])c2)c1
  H5N1 antiviral = i

# Following part.
Compound | H5N1 antiviral
Cn1c(SCC(=O)c2ccc3c(c2)OCO3)nnc1-c1ccccn1 | 0.8
CC(C)(C)c1ccc(S(=O)(=O)N2CCCCC2C(=O)NCc2ccccn2)cc1 (stereo unspecified) | 3.5
Cc1ccc2c(c1)NC(=O)C(CC(=O)NCCN(C)C)O2 (stereo unspecified) | 1.2
COC(=O)C1CSC(C(=O)OC)N1C(=O)Nc1ccc(Cl)c(Cl)c1 (stereo unspecified) | 0.1
Nc1cc(C(F)(F)F)ccc1C(=O)O | 1.1
COc1cc(/C=N\NC(=O)CN2CCOCC2)ccc1OCC(=O)Nc1ccc(C)c(C)c1 | i
Cc1sc(NC(=O)c2ccco2)c(CN2CCC(C)CC2)c1C | i
CC(C)c1nc2ccc(C(=O)O)cc2[nH]1 | 0.2
CC(C)NC(=O)C1CCN(C(=O)c2ccc(-c3ccccc3)cc2)CC1 | i
O=C(NCCCN=C1NS(=O)(=O)c2ccccc21)c1ccc(S(=O)(=O)N2CCOCC2)cc1 | 0.4
C=CCn1c(Cc2ccc(OCC)cc2)nnc1SCC(N)=O | 1.1
Cc1ccc(S(=O)(=O)N2CCN(C(=O)c3c(C)nn(-c4ccccc4)c3Cl)CC2)cc1 | 5.6
CC(C(=O)O)n1c(C(F)(F)F)nc2ccccc21 (stereo unspecified) | 0.2
CCCOC(=O)c1ccc(NC(=O)Oc2ccccc2)cc1 | 0.5
CCCc1nc2ccccc2c2nc(N)nn12 | 0.3
COc1cc(Nc2cc(C)nc3nc(C)nn23)cc(OC)c1OC | i
COc1ccc(C(=O)NNC(=O)CSc2nnc(COc3ccccc3)n2C)cc1 | 0.4
CCc1cc2c(SCC(=O)c3cccs3)ncnc2s1 | i
CCOC(=O)C1CCN(C(=O)Nc2ccc(OC)c(OC)c2)CC1 | 0.5
CN(CC#CCC(c1ccccc1)c1ccccc1)C(C)(C)C | i

# (list continues)
Compound | H5N1 antiviral
COc1ccc(-c2cc(C(F)(F)F)nc(SCC(=O)N3CC(C)OC(C)C3)n2)cc1OC (stereo unspecified) | i
CCOC(=O)C1=C(C)NC(=O)C1(NC(=O)c1cccnc1)C(F)(F)F (stereo unspecified) | i
C(#CCN1CCOCC1)COC/C=C/c1ccccc1 | i
CCc1ccc(NC(=O)CN(c2ccc3c(c2)OCO3)S(=O)(=O)c2c(C)noc2C)cc1 | i
CCCC(=O)Nn1cnc2c(c1=O)C1(CCCCC1)Cc1ccccc1-2 | i
O=C(CCSc1ccc(Cl)cc1)N1CCCCCC1 | 1.0
S=C(c1ccc(Br)cc1)N1CCN(Cc2ccccc2)CC1 | 1.4
COc1ccc(C)cc1S(=O)(=O)N(C)CC(=O)N1CCN(C)CC1 | 0.8
Cc1ccc(Nc2nc(-c3sc(NC(=O)c4ccc([N+](=O)[O-])cc4)nc3C)cs2)cc1 | i
Cn1c(=O)cc(OCC(=O)N2CCN(Cc3ccc4c(c3)OCO4)CC2)c2ccccc21 | 2.5
Cc1ccsc1C(=O)Nc1ccc(C(=O)O)cc1 | i
CCn1c(C(=O)OC)cc2c1ccn2-c1ccc(F)cc1 | i
Cc1cc2c(=O)n(CC(=O)NCC(=O)N3CCN(Cc4ccccc4)CC3)cnc2s1 | 0.0
COCc1nc2ccccc2n1Cc1ccccc1 | i
O=C(COC(=O)c1ccccc1Oc1ccccc1)NCc1ccco1 | 1.3
O=C(O)CCC(=O)Nc1nc2ccccc2s1 | 0.3
O=C(NCc1ccccn1)c1ccc(/C=N/O)nc1 | 0.5
OCCN(/C=N/c1nc(-c2ccc(Br)cc2)cs1)CCO | i
Cc1ccccc1NC(=O)c1cccc(Cn2cc(Br)c([N+](=O)[O-])n2)c1 | i
CCSc1ccc(NC(=O)c2cccnc2)cc1 | 1.5

# Next section.
Compound | H5N1 antiviral
CCOc1ccccc1Oc1c(C)oc2c(CN3CCN(CCO)CC3)c(O)ccc2c1=O | i
CCCN(Cc1ccccc1)S(=O)(=O)c1ccc(N2C(=O)CCC2=O)cc1 | 0.1
CC(C)Cn1cc(C(=O)NCC2CCCO2)c2c3ccccc3n(C)c2c1=O (stereo unspecified) | i
COc1ccc(CCN2C(=O)C(O)=C(C(=O)c3ccco3)C2c2cccs2)cc1OC (stereo unspecified) | 1.3
Cn1c(N)c(C(=O)COC(=O)CCC(=O)c2cccs2)c(=O)n(C)c1=O | 0.3
O=C(CN1CCC(c2nc3ccccc3[nH]2)CC1)NCc1ccc2c(c1)OCO2 | i
Cc1ccc(SCCNC(=O)c2ccc(C)c(S(=O)(=O)Nc3ccccc3C)c2)cc1 | 7.4
CC1(C)NC(=O)N(CC(O)COc2ccc(N3C(=O)c4ccccc4C3=O)cc2)C1=O (stereo unspecified) | i
O=C(COC(=O)c1ccco1)NCc1cccs1 | i
O=C(Nc1ccc2c(c1)OCO2)c1ccc(Cl)s1 | i
Cc1ccc(Cn2c(=N)n(CC(O)COc3ccccc3)c3ccccc32)cc1 (stereo unspecified) | i
CCn1cc(C(=O)O)c(=O)c2cc(F)c(N3CCN(C(=O)Nc4ccccc4)CC3)cc21 | 1.5
COc1ccccc1C(=O)Nc1ccc(N2CCN(S(C)(=O)=O)CC2)cc1 | i
CC1CCCN(CCCNC(=O)CCn2nc(-c3ccccc3)ccc2=O)C1 (stereo unspecified) | i
O=c1c2ccccc2nc(-c2ccoc2)n1-c1ccccc1 | 2.7
Cc1cc(C)n2nc(SCc3cc(=O)oc4cc(O)ccc34)nc2n1 | 0.7
O=C(O)CSc1nc2ccc(Cl)cc2[nH]1 | i
Cc1nnc(SCCN2CCOCC2)n1-c1cccc(Cl)c1 | i
CC(C)(C)NC(=O)C(c1ccco1)N(Cc1ccc2c(c1)OCO2)C(=O)Cn1nnc2ccccc21 (stereo unspecified) | i
Cc1cccc(OCc2nnc(SCC(=O)N3CCN(C(=O)c4ccco4)CC3)n2C)c1C | i

# Later entries.
Compound | H5N1 antiviral
N#Cc1ccc(COC(=O)C2CCC(=O)N2)cc1 (stereo unspecified) | i
O=C(Nc1ccon1)c1ccccc1F | i
O=S(=O)(NC1CCCC1)c1cccc(-c2nnc(-c3ccccc3)o2)c1 | i
COc1ccc(NC(=O)C2=C(C)Nc3ncnn3C2c2ccccc2C(F)(F)F)c(OC)c1 (stereo unspecified) | 0.0
COC(=O)C1(C)NC(c2cccs2)C2C(=O)N(c3ccc(F)cc3)C(=O)C21 (stereo unspecified) | i
COc1cccc(-c2nnc(SCC(=O)NCc3ccc4c(c3)OCO4)n2Cc2ccco2)c1 | 0.3
CC(C)OC(=O)c1c(N)n(CC2CCCO2)c2nc3ccccc3nc12 (stereo unspecified) | i
NC(=O)Nn1c(CCC(=O)O)ccc1-c1ccc(F)cc1 | i
CN1CCN(c2cc3c(c4c2[nH]c2ccccc24)C(=O)CC(C)(C)C3)CC1 | i
c1ccc(-c2cc(N3CCCCC3)ncn2)cc1 | 0.1
c1ccc(-n2ncc3c(N4CCN(CCOc5cccc6ccccc56)CC4)ncnc32)cc1 | 0.5
CCCCNc1ccc(C(=O)Nc2cccc(C)n2)cc1[N+](=O)[O-] | i
Cc1ccc(NC(=O)CN(C)S(=O)(=O)c2cccc3nsnc23)cc1Cl | 1.4
Cc1cc(C)n2nc3nc4c(cc3c2n1)CCCC4 | 2.3

# 4 of these compounds, set out differently:
> CC(C)OC(=O)c1c(N)n(CC2CCCO2)c2nc3ccccc3nc12 (stereo unspecified)
- H5N1 antiviral = i
> Cc1cc(C)n2nc3nc4c(cc3c2n1)CCCC4
- H5N1 antiviral = 2.3
> NC(=O)Nn1c(CCC(=O)O)ccc1-c1ccc(F)cc1
- H5N1 antiviral = i
> COc1cccc(-c2nnc(SCC(=O)NCc3ccc4c(c3)OCO4)n2Cc2ccco2)c1
- H5N1 antiviral = 0.3

# Screening results deposited in PubChem by SRMLSC.
